HIV TAR-Tat: HIV-1 TAR-Tat binding disruption | actives 0.6% (n = 100,000) | HIV-1 TAR RNA, Tat peptide displacement FRET; active compounds read high | z-score (concentration not given with the values);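 also: score is relative to mean and SD of negative controls; some compounds called inactive have numbers as strong as hits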
CDC25B CDK2 inh: human CDC25B-CDK2/CyclinA binding inhibition; P30305+P24941; AID 1259370; HTRF CDC25B-CDK2/CyclinA binding, anti-His/anti-Flag; active compounds read high; z-score (test concentration not listed); actives 0.72% (n = 94,000);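 also: score is relative to mean and SD of negative controls; strong numbers were not always called active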
Starred values were filed as active, the others as inactive.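 The calls were made as follows: active = z-score from 3 up in half or more of its runs; inactive = the rest.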

How did COC(=O)c1cc(NC(=O)COc2c(C)cc(C)cc2Cl)cc(C(=O)OC)c1 do in these assays?
CDC25B CDK2 inh: -3.7

How did Oc1c(Br)cc(Br)cc1C=Nc1ccc(Br)c2cccnc12 do in these assays?
CDC25B CDK2 inh: 1.2

Results for CCOC(=O)c1sc2nc(CS(=O)(=O)c3ccccc3)[nH]c(=O)c2c1C ?
HIV TAR-Tat: -5.9; CDC25B CDK2 inh: -1.2

What do the screens show for `CCN(CC)c1nc2nc[nH]c(=O)c2s1`?
HIV TAR-Tat: -5.1; CDC25B CDK2 inh: -1.3

What do the screens show for `COc1ccc(OC)c(NC(=O)N2CCn3cccc3C2C)c1` (centres undefined)?
HIV TAR-Tat: -1.6

How did COc1ccc(C2=NN3C(C2)c2cc(Br)ccc2OC3c2ccncc2)cc1 (centres undefined) do in these assays?
HIV TAR-Tat: -1.8; CDC25B CDK2 inh: 0

Results for O=C(Cn1ncc2c3ccccc3n(Cc3cccc(Cl)c3)c2c1=O)NC1CCCC1 ?
HIV TAR-Tat: -0.85; CDC25B CDK2 inh: -0.48

How did CCc1nnc(SCc2ccccc2Cl)c2cc3occc3n12 do in these assays?
HIV TAR-Tat: 1.6

How did CCN1CCN(CCN2C(=O)CCC2(C)C(=O)NC2CCCC2)CC1 (centres undefined) do in these assays?
HIV TAR-Tat: -1.2; CDC25B CDK2 inh: -1.9

What do the screens show for `Cc1ccc(NS(=O)(=O)c2ccc(-c3cc(C)no3)s2)cc1`?
HIV TAR-Tat: 0.36

Results for CC(O)CNc1ncnc2c1cnn2-c1cccc(Cl)c1 (centres undefined) ?
HIV TAR-Tat: 0.73

How did CCCCc1ccc(NS(=O)(=O)c2ccc(N3CCCCS3(=O)=O)cc2)cc1 do in these assays?
HIV TAR-Tat: 0.12

How did O=S(=O)(NCCc1csc(-c2ccc(Cl)cc2)n1)c1ccc2c(c1)OCCO2 do in these assays?
HIV TAR-Tat: -0.53

What do the screens show for `CCC(C)NC(=O)Cn1nc(-n2c(C)ccc2C)c2c(C)cc(C)nc21` (centres undefined)?
HIV TAR-Tat: 0.82

Results for Cc1cc2c3c([nH]c2cc1S(=O)(=O)N(C)Cc1cnn(-c2ccccc2)c1)CCCC3=O ?
HIV TAR-Tat: 0.34

What do the screens show for `Cc1cc2nc(CSc3nnc(NC(=O)COc4ccc(C)c(C)c4)s3)cc(=O)n2o1`?
HIV TAR-Tat: 1.8

What do the screens show for `CCCc1cc(=O)[nH]c(SCC(=O)NCCSCc2ccco2)n1`?
CDC25B CDK2 inh: -1.1

What do the screens show for `Cc1c(C(=O)Nc2cccc3cccnc23)oc2cc(Br)ccc12`?
HIV TAR-Tat: -0.66; CDC25B CDK2 inh: 1.5

Results for CCOC(=O)c1c(C)oc2c(Br)cc(NS(=O)(=O)c3ccc(OCC)cc3)cc12 ?
HIV TAR-Tat: -0.31; CDC25B CDK2 inh: -0.49

Results for O=C(Nc1ccccc1C(=O)NCCc1ccccc1)c1ccco1 ?
CDC25B CDK2 inh: -4.3

Results for CCCNS(=O)(=O)c1ccc(-c2ccc(=O)[nH]n2)o1 ?
HIV TAR-Tat: 1.1

What do the screens show for `Cc1ccc(CN2CCc3nc(N4CCCC4)ncc3C2)s1`?
HIV TAR-Tat: 0.27

Results for CC1(C)Cc2c(sc3c2c(=O)n(-c2ccc(Cl)cc2)c(=O)n3CC(N)=O)CO1 ?
HIV TAR-Tat: -0.02; CDC25B CDK2 inh: -0.73

Results for CCOC(=O)C1CCCN(C(=O)CCC(=O)N2CCCn3nc(C)cc32)C1 (centres undefined) ?
HIV TAR-Tat: 1.2

How did O=S1(=O)C[C@H](N2CCN(c3ccccc3)CC2)[C@@H](S(=O)(=O)c2ccc(F)cc2)C1 do in these assays?
HIV TAR-Tat: 0.64; CDC25B CDK2 inh: -0.8

Results for Cn1c(=O)c2c(nc(CN3CCN(Cc4ccccc4)CC3)n2CCN2CCOCC2)n(C)c1=O ?
HIV TAR-Tat: -1.6; CDC25B CDK2 inh: -1.6

Results for O=C(CSc1nnc2scc(-c3ccc(Cl)cc3)n12)c1ccc2c(c1)OCCO2 ?
HIV TAR-Tat: 3.3; CDC25B CDK2 inh: 0.1

How did Cc1noc(NS(=O)(=O)c2ccc(NC(=O)C34CC5CC(CC(C5)C3)C4)cc2)c1C do in these assays?
CDC25B CDK2 inh: -0.8

How did CS(=O)(=O)Nc1csc2cc(C(F)(F)F)cc(Cl)c12 do in these assays?
CDC25B CDK2 inh: -1.9

How did Cc1ccc(C)c(NS(=O)(=O)c2ccc3c(c2)CC(C)N3C(=O)C2CCC2)c1 (centres undefined) do in these assays?
HIV TAR-Tat: -0.77

Results for CN(C)CCCN(C(=O)c1cccs1)c1nc2c(Cl)cccc2s1 ?
HIV TAR-Tat: 2.3

Results for COc1ccc(-c2ccn[nH]2)c(O)c1 ?
HIV TAR-Tat: 0.58; CDC25B CDK2 inh: -3

What do the screens show for `CC1=NS(=O)(=O)c2cc(C(=O)N3CCOCC3)ccc2N1CC(C)C`?
HIV TAR-Tat: 0.64

What do the screens show for `COc1ccc(NNS(=O)(=O)O)cc1`?
CDC25B CDK2 inh: 1.3

How did CCCN1C(=O)c2cc(C(=O)NC3CCCC3)nn2CC1(C)C(=O)NC1CCCC1 (centres undefined) do in these assays?
HIV TAR-Tat: 0.93

Results for CC(C)C1NC(=O)CNC1=O (centres undefined) ?
CDC25B CDK2 inh: -1.4

Results for COc1ccc2c(C(O)CN3CCN(c4ccccc4)CC3)c[nH]c2c1 (centres undefined) ?
HIV TAR-Tat: -2.9; CDC25B CDK2 inh: -1.8

Results for O[Si](CCCN1CCCCC1)(c1ccc(F)cc1)C1CCCCC1 (centres undefined) ?
CDC25B CDK2 inh: -1.9

Results for COCCNc1nc(NCc2cccc(C)c2)c2cnn(C)c2n1 ?
HIV TAR-Tat: 1.6

How did COc1ccc(N2C(=O)C3CC=CC(C)C3C2=O)cc1 (centres undefined) do in these assays?
HIV TAR-Tat: 0.29; CDC25B CDK2 inh: 0.4

In the list so far, these have a furan ring, fused or not:
How did CCc1nnc(SCc2ccccc2Cl)c2cc3occc3n12 do in these assays?
HIV TAR-Tat: 1.6

What do the screens show for `CCCc1cc(=O)[nH]c(SCC(=O)NCCSCc2ccco2)n1`?
CDC25B CDK2 inh: -1.1

What do the screens show for `Cc1c(C(=O)Nc2cccc3cccnc23)oc2cc(Br)ccc12`?
HIV TAR-Tat: -0.66; CDC25B CDK2 inh: 1.5

Results for CCOC(=O)c1c(C)oc2c(Br)cc(NS(=O)(=O)c3ccc(OCC)cc3)cc12 ?
HIV TAR-Tat: -0.31; CDC25B CDK2 inh: -0.49

Results for O=C(Nc1ccccc1C(=O)NCCc1ccccc1)c1ccco1 ?
CDC25B CDK2 inh: -4.3

Results for CCCNS(=O)(=O)c1ccc(-c2ccc(=O)[nH]n2)o1 ?
HIV TAR-Tat: 1.1

Three entries out of the list, arranged by SMILES length, highest first.
How did O=S1(=O)C[C@H](N2CCN(c3ccccc3)CC2)[C@@H](S(=O)(=O)c2ccc(F)cc2)C1 do in these assays?
HIV TAR-Tat: 0.64; CDC25B CDK2 inh: -0.8

Results for CCCNS(=O)(=O)c1ccc(-c2ccc(=O)[nH]n2)o1 ?
HIV TAR-Tat: 1.1

What do the screens show for `COc1ccc(OC)c(NC(=O)N2CCn3cccc3C2C)c1` (centres undefined)?
HIV TAR-Tat: -1.6

(list continues)
Results for COc1ccc(NS(=O)(=O)c2cc(-c3cnc(C)o3)ccc2OC)cc1 ?
HIV TAR-Tat: 0.77

How did CCOCCc1nn2c(=O)cc(COC(=O)c3ccco3)nc2s1 do in these assays?
HIV TAR-Tat: 0.43

How did COc1ccccc1OCCSc1nc(C)cc(=O)[nH]1 do in these assays?
HIV TAR-Tat: 0.14; CDC25B CDK2 inh: 0.4

Results for N#Cc1c(Oc2cccnc2)ccc([N+](=O)[O-])c1Oc1cccnc1 ?
CDC25B CDK2 inh: 2.4

How did Cc1c(CNCCc2ccco2)c(C(=O)O)c(C)n1-c1ccccc1 do in these assays?
HIV TAR-Tat: 1.3

Results for Cc1nc2sc(C(c3cccs3)N3CCN(c4ccccc4F)CC3)c(O)n2n1 (centres undefined) ?
CDC25B CDK2 inh: -1.5

How did CC(=O)N1c2ccc(S(=O)(=O)N3CCOCC3)cc2CC1C(=O)N1CCCC1 (centres undefined) do in these assays?
HIV TAR-Tat: 0.83

What do the screens show for `O=C(c1cc(-c2ccc3c(c2)OCCO3)on1)N(Cc1cccc(F)c1)C1CCS(=O)(=O)C1` (centres undefined)?
HIV TAR-Tat: 1.3; CDC25B CDK2 inh: -0.48

How did CC(C)(C)c1ccc(-c2noc(CNS(=O)(=O)c3ccccc3)n2)cc1 do in these assays?
HIV TAR-Tat: 0.21; CDC25B CDK2 inh: -0.12

How did Cc1ccccc1OC1C(=O)N(Cc2ccc3c(c2)OCO3)C1c1sccc1C (centres undefined) do in these assays?
HIV TAR-Tat: 0.49; CDC25B CDK2 inh: -0.41

Results for O=C(Cn1ncc2c([nH]c3ccccc32)c1=O)N1CCOCC1 ?
HIV TAR-Tat: 0.05

Results for CCC(C)NC(=O)CCc1nnc2ccc(NCc3ccco3)nn12 (centres undefined) ?
HIV TAR-Tat: 2.8

What do the screens show for `O=C(NCCC1=CCCCC1)C1CCN(S(=O)(=O)c2ccc(-n3cnnn3)cc2)CC1`?
HIV TAR-Tat: -0.12; CDC25B CDK2 inh: -1.8

What do the screens show for `CC(C)N(C(=O)CSc1cn(CC(=O)N2CCOCC2)c2ccccc12)C(C)C`?
HIV TAR-Tat: -0.02

Results for CCOC(=O)c1c(NC(C)=O)sc2c(OCC)c(Br)ccc12 ?
HIV TAR-Tat: 0.31; CDC25B CDK2 inh: -0.8

Results for CC1=C(C(=O)OCCOc2ccccc2)C(c2cccc(O)c2)C2=C(CC(C)(C)CC2=O)N1 (centres undefined) ?
HIV TAR-Tat: 0.72; CDC25B CDK2 inh: 0.12

How did O=S(=O)(NCc1nc(-c2ccccc2Cl)no1)c1ccccc1 do in these assays?
HIV TAR-Tat: 1.5; CDC25B CDK2 inh: -0.08

How did CN1C(=O)c2cc(NC(=O)C3CC3)ccc2N2CCN=C12 do in these assays?
HIV TAR-Tat: 1.9

Results for Cc1cc2[nH]c(=O)[nH]c2cc1NC(=O)Cc1cccs1 ?
HIV TAR-Tat: 1.9

What do the screens show for `O=S(=O)(c1ccccc1)c1nnn2c1nc(NC1CCCC1)c1sccc12`?
HIV TAR-Tat: 0.5

How did COc1ccc(-c2noc(C3CCCN(S(=O)(=O)c4ccc(Cl)cc4)C3)n2)cc1OC (centres undefined) do in these assays?
HIV TAR-Tat: 0.99

Results for CC(=O)N1c2ccc(S(=O)(=O)N3CCCC(C)C3)cc2CC1C (centres undefined) ?
HIV TAR-Tat: 1.5

Results for O=C(CSc1ccsc1[N+](=O)[O-])N1CCN(c2ccccc2)CC1 ?
HIV TAR-Tat: -0.03; CDC25B CDK2 inh: -2.1

How did CCCc1nnc(N2C(=O)c3oc4ccc(F)cc4c(=O)c3C2c2ccc(C(=O)OC)cc2)s1 (centres undefined) do in these assays?
HIV TAR-Tat: 1.1; CDC25B CDK2 inh: 0.01

Results for Cc1ccc(C)c(N2CCN(c3c(-c4ccc5c(c4)OCC(=O)N5)c(=O)c3=O)CC2)c1 ?
HIV TAR-Tat: 0.47

How did COc1cccc(-c2noc(N3CCOCC3)n2)c1 do in these assays?
HIV TAR-Tat: -1

Results for CC1(C)CC(CC(=O)O)(c2ccccc2)CCO1 (centres undefined) ?
HIV TAR-Tat: 1.4; CDC25B CDK2 inh: -0.67

How did O=C(CCc1nnc2ccc(NCc3ccccc3Cl)nn12)NC1CCCC1 do in these assays?
HIV TAR-Tat: 1.3

Results for COC(=O)c1cc2sccc2n1Cc1nc(-c2cccs2)oc1C ?
HIV TAR-Tat: 0.16; CDC25B CDK2 inh: -0.74

How did C#CC(CC)(CC)NC(=O)Nc1cnccc1C(F)(F)F do in these assays?
CDC25B CDK2 inh: -1.2

What do the screens show for `Cc1cc(NC2c3ncccc3C(=O)N2Cc2cccs2)ccc1Br` (centres undefined)?
HIV TAR-Tat: -2.4; CDC25B CDK2 inh: -1.9

What do the screens show for `CCOC(=O)c1sc(N2C(=O)c3oc4ccccc4c(=O)c3C2c2ccc(C)cc2)nc1C` (centres undefined)?
HIV TAR-Tat: -1.9; CDC25B CDK2 inh: 1

How did CCOC(=O)c1sc(NC(=O)CCCC(=O)O)nc1C do in these assays?
HIV TAR-Tat: -0.14; CDC25B CDK2 inh: -0.32

Results for O=C(Nc1ccccc1N1CCOCC1)c1ccccc1 ?
CDC25B CDK2 inh: -1.1

Results for COc1cc(-n2c(SCC(=O)c3ccccc3)nc3ccccc3c2=O)c(OC)cc1Cl ?
CDC25B CDK2 inh: -1.3

Results for COc1ccc(/C=C2\SC3C(C#N)=C(c4ccc(OC)cc4)C(C#N)=C(N)N3C2=O)cc1 (centres undefined) ?
CDC25B CDK2 inh: -2.5

How did Fc1ccc(CN2CCc3nc(Nc4ccccc4F)ncc3C2)c(F)c1 do in these assays?
HIV TAR-Tat: 1.3

How did Cc1nc(C(F)(F)F)ccc1C(=O)Sc1ccc(F)cc1 do in these assays?
CDC25B CDK2 inh: -0.97

Results for CCNc1nc(NCCN2CCOCC2)nc2c1cnn2C ?
HIV TAR-Tat: 0.64

Results for CCC1CN(S(=O)(=O)c2cc(-c3cc(C)no3)ccc2C)c2cc(C)ccc2O1 (centres undefined) ?
HIV TAR-Tat: 1.1

Results for COC(=O)CSc1nc(-c2cccs2)nc2c1c(=O)n(C)c(=O)n2C ?
CDC25B CDK2 inh: -2.2

Screens as filed in PubChem.
